AF4-AF9 inh = inhibitors of human MLL-AF4/AF9 interaction; AID 651704; AlphaScreen, biotin-AF4 peptide binding to FLAG-AF9; 0.47% of 350,000 active; inhibition, % at 10 µM;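 active means every replicate reaching a set inhibition limit, whatever the replicate mean, cut at about 25% in these data; inconclusive means mean inhibition reaches that limit but some replicates miss it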;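 further: 0% = plate neutral control median and 100% = total signal loss; the record names both 10 and 1 µM as test concentration; the first replicate is given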
Target sequence (P42568 whole entry, looked up): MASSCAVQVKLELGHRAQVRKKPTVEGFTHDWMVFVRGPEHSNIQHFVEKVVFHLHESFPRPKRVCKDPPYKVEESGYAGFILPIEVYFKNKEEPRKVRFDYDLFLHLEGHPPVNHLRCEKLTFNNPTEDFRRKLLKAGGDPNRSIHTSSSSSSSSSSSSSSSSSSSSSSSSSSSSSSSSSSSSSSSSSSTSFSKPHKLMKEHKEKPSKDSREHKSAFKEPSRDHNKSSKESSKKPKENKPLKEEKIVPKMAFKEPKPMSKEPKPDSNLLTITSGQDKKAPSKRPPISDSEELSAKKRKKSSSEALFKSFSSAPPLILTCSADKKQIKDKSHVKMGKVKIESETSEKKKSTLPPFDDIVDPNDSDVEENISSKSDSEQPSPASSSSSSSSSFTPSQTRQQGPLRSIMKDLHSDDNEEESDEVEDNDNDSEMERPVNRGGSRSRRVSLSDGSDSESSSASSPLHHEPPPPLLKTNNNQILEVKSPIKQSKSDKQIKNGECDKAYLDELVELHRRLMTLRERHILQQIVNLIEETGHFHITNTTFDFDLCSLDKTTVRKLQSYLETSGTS
Beta cell apopt = beta cell apoptosis inhibition; INS-1E cytokine-induced death, ATP luminescence, 48 h; percent of positive-control rescue, neutral wells zero; protection from apoptosis, % (concentration not given with the values); 0.8% of 300,000 active; AID 435005;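 active means all replicates at 75% or more, or half of them and the mean; inconclusive means half reach 75% but not the mean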;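 further: 0% = cytokine-treated negative control wells and 100% = positive control rescue; higher means more ATP so stronger rescue from cytokine killing; wells of about 40 µL received 100 nL stock; the first replicate is given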
Calb FLC = affects C. albicans growth with fluconazole | C. albicans CaCi-2 (fluconazole-resistant clinical isolate) + fluconazole, Alamar Blue growth, 48 h | growth inhibition, % (no concentration beside the values) | 0.57% of 300,000 active | AID 1979;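 active means most replicates above 75%; inconclusive means exactly half above 75%; inactive means most below 75%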;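 further: all wells also contain fluconazole at 8 µg/ml as a sub-toxic cotreatment; 0% = median of DMSO wells and 100% = median of geldanamycin control wells; wells of about 8 µL received 7.5 nL stock; the first replicate is given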
RanGTP-Imp inh = disruptors of Ran-importin-beta complex formation – biochemical, FRET, CFP-Ran, YFP-importin-beta, homogeneous, primary screen; cell-free CFP-Ran/YFP-importin-beta FRET ratio; inhibition, % (no concentration beside the values); 1.1% of 300,000 active;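 active means most replicates above 15%; inconclusive means exactly half above 15%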;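 further: 0% = DMSO wells and 100% = Ran loaded with GDP instead of GTP; wells of about 40 µL received 100 nL stock; the first replicate is given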
Vif A3G = inhibitors of Vif binding to APOBEC3G peptide, primary screen, biochemical, TR-FRET, GST-Vif 1-94, biotin-A3G peptide, dose response retest (AID 1117319); inhibition, %, or IC50 in µM where a hit was titrated; TR-FRET GST-Vif / biotin-A3G peptide binding; higher % means a stronger effect; test concentration not given here; strong numbers were not always called active; 0.57% of 260,000 active;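 active means above the screen mean plus three standard deviations and confirmed in dose response; inconclusive means results disagree or hit not tested in dose response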;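 further: Vif residues 1-94 fused to GST binding biotinylated APOBEC3G peptide 110-148; 0% = full assay without inhibitor and 100% = GST in place of GST-Vif; retest series ran down from 100 µM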
LANA-H2B inh = blocks KSHV LANA binding to histone H2A/H2B; Q9QR71; cell-free LANA-H2A/H2B peptide, fluorescence polarization; inhibition, % (concentration not given with the values); 0.6% of 320,000 active; AID 2629; in the data active means inhibition mostly above about 10%, no sharp cut-off; inactive means mostly below about 6.7%;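 further: stock transfer was 7.5 nL into about 10 µL; 0% = median of vehicle wells and 100% = median of positive control wells; one replicate is shown; the record names a cut of 25% in any replicate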
A1 inh = inhibitors of the anti-apoptotic protein A1, read as caspase activation. MEF A1-2A-BIM cells, Caspase-Glo 3/7 luminescence, 3 h; percent of clofoctol response, vehicle zero. caspase activation, % (concentration not given with the values). 0.066% of 330,000 active. AID 2462;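 active means over half of replicate activation scores above 10%, or exactly half above 10 with the replicate mean above 10; inconclusive means replicate mean below 10 yet half the replicates above 10; inactive means over half of replicates below 10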;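 further: wells of about 30 µL received 50 nL stock; many hits fall short of the cut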
T cruzi inh = blocks replication of Trypanosoma cruzi; inhibition, % (no concentration beside the values); 1.4% of 300,000 active; T. cruzi beta-gal in NIH3T3, luminescence, 90 h;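 active means mean inhibition across valid replicates above about 55%, limit read from the data; inconclusive means mean below that limit but half or more replicates reach it; inactive means mean below it, under half of replicates reach it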;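 further: signal also drops with host cell toxicity which is not excluded here; 0% = plate median of DMSO wells and 100% = zero luminescence signal; higher percent means less beta-gal luminescence so fewer parasites; stock transfer was 50 nL into about 50 µL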
Active calls of the source: *; u = inconclusive; x = no result given; & = joins results of further samples.

Compound	AF4-AF9 inh	Beta cell apopt	Calb FLC	RanGTP-Imp inh	Vif A3G	LANA-H2B inh	A1 inh	T cruzi inh
COc1ccc(Cl)cc1C(=O)Nc1ccc2c(c1)OCO2	x	2	4	2.8	-10%	1.8	-0.5	-15
CCOC(=O)C1(CC2CC2)CCN(Cc2cnc(-c3ccc(OC)cc3)nc2)CC1	2.5	2	-13	3.9	-3%	3.1	0.5	18
c1coc(CSCc2cn3cccnc3n2)c1	x	-1	-3	0.8	18%	1.0	0.4	-25
CC1(C)CC(=O)C2=C(C1)N(c1ccccc1)C(N)=C(C#N)C2c1ccsc1 (stereo not given)	x	-5	-4	u	u	3.0	-0.3	17
Oc1[nH]c2ccc(Br)cc2c1N=NC(=S)N1CCOCC1	x	108*	96*	-2.6	x	2.8	0.0	55*
COc1ccc(-c2cc(C)nc(SCc3cccc(C(=O)O)c3)n2)cc1	0.6	0	-14	-11	-1%	3.3	-0.3	1
COc1ccc(C2C(C(=O)NCc3ccccn3)c3ccccc3C(=O)N2C)cc1OC (stereo not given)	x	2	23	2.5	29%&0%	5.6	0.3	5
N#Cc1cc([N+](=O)[O-])ccc1NC(=O)COC(=O)C1CCC(=O)N1 (stereo not given)	0.4	-10	x	x	3%	2.8	-0.7	x
O=C(OCCN1CCCCC1)C1(c2ccccc2)CCCC1	3.8	-2	-19	-4.4	1%	0.4	1.8	-9
c1cncc(-c2nc(NCC3CCCO3)c3ccccc3n2)c1 (stereo not given)	x	-6	4	7.9	x	-0.7	0.1	20
COc1cccc(CNC(=O)CCN2C(=O)[C@@H]3Cc4ccccc4CN3C2=O)c1	0.8	-4	x	u	x	1.1	0.9	16
CNc1nc(-c2ccccc2)nnc1C(F)(F)F	x	x	8	4.7	-5%	-0.9	0.8	-8
COc1ccc(CCN2CC(C(=O)N(C)Cc3ccc(C)o3)CCC2=O)cc1 (stereo not given)	-6.8	-1	-11	-0.6	0%	-2.2	1.2	3
Cc1cc(Nc2nc3c(c(=O)n(C)c(=O)n3C)n2C)n(-c2ccc(Cl)cc2)n1	x	-7	24	3.2	-1%	7.1	-0.6	-4
Cc1ccc(NC(=O)C2C3C=CC4(CN(Cc5cccnc5)C(=O)C24)O3)cc1 (stereo not given)	0.0	-2	1	3.3	u	-1.7	-0.4	-7
COC(=O)c1ccc(NC(=S)NCC2CC2)cc1	2.2	-11	15	3.2	12%	1.6	0.8	-14
c1ccc(N2CCN(c3nc4ccccc4n4nnnc34)CC2)cc1	x	4	-1	44*	-5%	1.1	0.0	-9
O=C(CNc1cc(S(=O)(=O)N2CCCC2)ccc1OCC(F)(F)F)Nc1cccc(C(F)(F)F)c1	4.6	35	20	2.4	19%	10	-0.2	6
O=C(NNS(=O)(=O)c1ccccc1)C1CCN(S(=O)(=O)c2ccc(Cl)cc2)CC1	x	5	37	-0.3	0%	1.3	0.0	-7
O=C1c2cccc3c([N+](=O)[O-])ccc(c23)C(=O)N1c1nccs1	x	9	26	-21	17%	-1.0	-1.1	0
Cc1ccc(Nc2nnc(SCC(=O)NC3CC3)s2)cc1	-1.1	-4	x	x	-4%	-3.6	-1.0	x
CCOC(=O)c1c(N)sc2c(O)c(Br)ccc12	x	1	54	0.7	16%	-0.8	0.1	-17
O=C(COc1ccccc1)Nc1cc(Cl)ccc1Cl	-2.3	7	-36	4.7	x	-1.2	1.8	-4
CCOC(=O)CNc1c(-c2ccc(F)cc2)nc2cnccn12	x	-1	0	8.1	-5%	4.6	-0.6	-5
CN(C(=O)COC(=O)c1ccccc1SCC(=O)N1CCCC1)C1(C#N)CCCCC1	0.6	-7	x	x	-5%	-4.2	0.9	x
Cc1ccc(CNC(=O)c2ccc(N3CCC4(CC3)CC(c3cccc(Br)c3)=NO4)c(NC(=O)c3c(Cl)cccc3Cl)c2)cc1	1.9	-2	x	x	x	0.7	0.8	x
Cc1ccc(S(=O)(=O)c2nnn3c2nc(N2CCCCC2)c2ccccc23)cc1	x	-7	-2	-1.6	-4%	-0.4	0.1	61*
CC(=O)Nc1ccc(C(=O)N2CCCc3ccccc32)cc1	-1.6	-2	-1	1.3	x	4.9	1.2	-8
Cc1ccc(C(=O)C(C)Oc2ccc3ccc(=O)oc3c2)cc1 (stereo not given)	-4.7	-7	-1	0.4	x	-4.8	1.0	-4
CCOc1ccccc1N(CC(=O)Nc1c(C)n(C)n(-c2ccccc2)c1=O)S(=O)(=O)c1ccccc1	0.7	2	27	0.0	9%	11	-0.7	15
O=C(CN1CCN(C(=O)c2ccccc2F)CC1)Nc1ccc(Br)cc1	x	-4	2	1.2	-3%	4.2	0.0	-2
Cc1[nH]c(-c2ccc(F)cc2)cc1C(=O)N1CCN(c2ccccc2)CC1	9.8	1	1	-2.9	0%	-0.1	-0.3	-6
CCOC(=O)Cc1csc(NC(=S)NC(=O)c2cc(OC)c(OC)c(OC)c2)n1	-2.4	-11	7	3.2	2%	-3.7	0.0	-6
CCCOc1ccc(Br)cc1CSC(=N)N	8.1	99*	-29	1.3	x	1.1	-0.7	6
CCN1CCc2nc3ccccc3c(C(=O)Nc3ccc(C#N)cc3)c2C1	0.9	-5	-2	2.4	-9%	2.4	-2.9	44
O=C(Oc1cccc(Cl)c1)N1CCOCC1	-6.6	-5	13	-2.9	x	5.3	0.4	-9
Cc1csc(=O)n1CCC(=O)OCC(=O)Nc1ccc(Cl)cn1	-0.3	0	x	-1.0	6%	-4.8	-1.2	-4
COc1cccc2sc(Nc3nc4ccc(NC(C)=O)cc4s3)nc12	-6.8	15	42	3.7	x	8.3	-1.7	29
C/C=C/c1ccc(OCC(O)CN2CCCCCCC2)c(OC)c1 (stereo not given)	11	-2	-2	-0.1	-6%	-2.6	0.5	12
CC(=O)Oc1ccc(/C=C2\N=C(C3CCCCC3)OC2=O)cc1	0.3	-6	3	u	5%	-2.7	1.1	-38
Cc1ccc([N+](=O)[O-])cc1S(=O)(=O)N(C(=O)c1ccncc1)c1ccc2oc3c(c2c1)CCCC3	0.3	-3	-6	1.2	x	-1.7	0.9	11
COC(=O)c1sccc1NC(=O)Nc1cccc([N+](=O)[O-])c1	-1.3	-4	-2	3.6	x	-2.4	-0.4	-10
COc1cc(C(=O)NCc2nnc(SCC(=O)Nc3nc4ccc(C)cc4s3)o2)cc(OC)c1OC	x	3	1	-5.2	45µM*	-0.4	-1.1	-4
Cc1cccc(-n2ncc3c(NCCc4ccc(S(N)(=O)=O)cc4)ncnc32)c1	8.2	9	2	1.0	9%	2.4	0.9	-15
O=C(CCC(=O)c1ccc(F)cc1)Nc1cccc(S(=O)(=O)Nc2cccc(Cl)c2)c1	-2.9	-4	-1	9.5	x	-1.1	-0.7	-2
CCn1c(=NC(=O)CS(=O)(=O)c2ccc(C)cc2)sc2cccc(OC)c21	0.6	x	-14	0.4	-2%	-0.7	-0.8	59*
Cc1cccc(N(CC(=O)NCc2ccc(F)cc2)C(=O)c2csnn2)c1C	0.7	3	-6	-1.2	-1%	2.8	-0.6	-8
CCOc1ccc(C(=O)NCC2CCCO2)cc1 (stereo not given)	x	-1	14	x	-1%	0.4	-0.1	-8
O=C(CSc1nc(O)c(C2CCCCC2)c(=O)[nH]1)NCC1CCCO1 (stereo not given)	x	-2	-6	0.1	14%	2.9	0.0	-12
COc1cccc(/C=N/NC(=O)CNC(=O)c2ccc(S(=O)(=O)N3CCCC3)cc2)c1OC	3.0	1	u	2.7	5%	-2.2	-0.5	4
CCOc1ccc(C(C)=O)cc1COC(=O)c1cc([N+](=O)[O-])ccc1N1CCOCC1	5.2	7	-2	8.9	10%	-3.1	-0.4	34
O=C(c1ccco1)c1coc2c1cc(O)c1ccccc12	0.5	100*	31	2.0	u	-2.5	-1.5	-18
CC1C(=O)N2CCCc3cc(NC(=O)C4CC4)cc1c32 (stereo not given)	0.3	0	2	5.4	-8%	-0.4	1.4	4
CC1(C)C2CCC1(C)C(Nc1ccccc1)C2 (stereo not given)	1.4	x	11	1.5	20%	x	x	-23
O=C1CCC(C(=O)N2CCSCC2)CN1CCc1ccccc1 (stereo not given)	-22	x	-5	8.5	x	0.6	-1.2	-6
Cc1nnc(NC(=O)CSc2nnc(CCc3nc4ccccc4[nH]3)n2C)s1	x	2	-15	-2.2	0%	-1.3	0.8	-10
CCNC(=O)CC1C(=O)N(c2ccc(OC)cc2)C(=O)N1Cc1ccc(OC)cc1 (stereo not given)	x	2	15	0.2	-6%	-0.9	0.2	-11
CC(=O)Nc1cccc(NC(=O)Nc2ccc(F)cc2F)c1	-3.3	-1	-8	3.7	5%	-1.1	0.1	-6
CC(C)N1C(=O)S/C(=C/c2ccccc2OCc2ccc(C(=O)O)cc2)C1=O	1.4	-7	17	-4.7	-4%	5.5	0.2	4
Cc1ccc(S(=O)(=O)NCCC(=O)NNC(=O)COc2ccccc2Cl)cc1C	-9.3	-5	x	x	7%	4.7	1.1	x

The results go on:
Compound	AF4-AF9 inh	Beta cell apopt	Calb FLC	RanGTP-Imp inh	Vif A3G	LANA-H2B inh	A1 inh	T cruzi inh
CNC(=S)NNC(=O)c1oc2nc(-c3ccccc3)cc(-c3ccco3)c2c1N	-0.8	1	4	3.2	x	0.3	-1.9	2
O=C(CCSc1nc(-c2ccc3c(c2)OCO3)cc(C(F)(F)F)n1)NCc1ccco1	0.0	-3	6	-4.3	3%	-0.1	0.0	3
Cc1sc2nc(CSc3ccccc3)nc(N3CCC(C(N)=O)CC3)c2c1C	-1.1	0	-8	-0.8	x	-3.5	0.1	19
COCCN(Cc1ccccc1)C(=O)c1cccc(S(=O)(=O)N2CCN(c3ccc(F)cc3)CC2)c1	7.6	5	2	x	0%	-5.8	0.7	24
CCOC(=O)NNC(=O)NCCCCCCNC(=O)NNC(=O)OCC	0.7	-7	-2	-1.3	17%	-1.0	0.4	-2

Screening data from PubChem BioAssay.
